# Screening data as filed in PubChem.
# Biofilm kill mix: mixture kills Candida albicans biofilm cells. C. albicans biofilm persisters + clotrimazole, fluorescence viability; primary screen in compound mixtures of four per well. inhibition, % at 7.6 µM. 120,000 compounds, 0.02% hits. AID 1242;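 active means inhibition above 30.3% in the primary screen of four-compound pools, then above 30% when the compound was retested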;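 further: compounds exposed to preformed 24 h biofilms for 48 h; the number belongs to the whole pool; some results filed as inactive read as strong as hits; inactives centre near 12; 0% = biofilm with clotrimazole alone and 100% = kill control; retested singly at about 60 µM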
#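 Probe or stimulus – Clotrimazole 50 µg/mL co-treatment · System – C. albicans biofilms · Schedule – 24 h biofilm formation, then 48 h compound exposure, 37 °C · Evaluation – percent inhibition of biofilm viability · Technique – 2-h Alamar Blue fluorescence, 535/590 nm excitation/emission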
# * marks the source's active call; other numbers are inactive results. Some of the compounds tested; count on the stated rates, not on these rows.
SMILES,Biofilm kill mix
O=C1/C(=C\c2ccc(O)cc2)SC(=S)N1c1cccnc1,27.2
CCCC1CCC(C(=O)n2nc(N)c3cc4ccc(OC)cc4nc32)CC1 (stereo not drawn),17.1
O=C(CCSc1nnc(-c2ccccc2)o1)N1CCOCC1,10.3
CCCC(C)NC(=O)c1ccc(-c2ccccc2)cc1 (stereo not drawn),12.1
CC(C(=O)OCC(=O)c1ccc([N+](=O)[O-])cc1)N1C(=O)C2C3CCC(C3)C2C1=O (stereo not drawn),-2.9
O=CN1CCN(C(=S)Nc2ccc(OC(F)F)cc2)CC1,8.6
COc1cc(O)c(CCC(=O)c2cc(OC)c(OC)c(OC)c2)c(OC)c1,2.8
CC(NC(=O)Cc1cccs1)C(c1cccs1)N1CCOCC1 (stereo not drawn),9.4
CC1CCN(CC(=O)Nc2ccccc2C(=O)c2ccccc2)CC1,1.9
COc1ccccc1Nc1nc(N)nc(CN2CCN(Cc3ccc4c(c3)OCO4)CC2)n1,7.9

# The final 3 compounds of the part above open the next one.
SMILES,Biofilm kill mix
CC(NC(=O)Cc1cccs1)C(c1cccs1)N1CCOCC1 (stereo not drawn),9.4
CC1CCN(CC(=O)Nc2ccccc2C(=O)c2ccccc2)CC1,1.9
COc1ccccc1Nc1nc(N)nc(CN2CCN(Cc3ccc4c(c3)OCO4)CC2)n1,7.9
CCN1c2ccccc2-c2nc3ccccc3n2C1c1cccs1 (stereo not drawn),18.8
COc1ccccc1NC(=O)CN1CCSc2ccccc21,1.3
O=C(/C=C\c1ccccc1)Nc1ccc(NC(=O)c2ccco2)cc1,10.5
O=C(O)CCCN1C(=O)C(=O)/C(=C(/O)c2ccccc2)C1/C=C/c1ccccc1 (stereo not drawn),9.6
CC(C)(CC(=O)O)CC(=O)NCc1c(Cl)cccc1Oc1ccccc1,11.5
O=C(c1cc(F)ccc1F)C1CCCN(C(=O)c2ccc(F)cc2Cl)C1 (stereo not drawn),9.3
C[C@@H]1C=C(C(=O)NC2CC2)O[C@H](OCc2ccc(CO)cc2)C1,14.7
CC(C(=O)NCCc1nc2ccccc2[nH]1)n1cc([N+](=O)[O-])cn1 (stereo not drawn),15.2
CCOC(=O)c1c(NC(=O)c2c(C(=O)O)cccc2[N+](=O)[O-])sc(C)c1C,8.1
CCOCCn1c(COc2ccc(C)cc2)nc2ccccc21,10.3
COC(=O)c1cccc(Nc2ncnc3sccc23)c1,13.9
O=C(NCCOc1cccc2cccnc12)c1cccs1,15.1
COC(=O)C1=C(SC)N(c2ccc(OC)cc2)C(c2ccccc2)CC1=O (stereo not drawn),20.8
COC(=O)CCC(=O)OC1(C)C(=O)C=C2C=C(C3CC3)N(C3CCCCC3)C=C2C1=O (stereo not drawn),13.0
CCC(C)N1CCCC1C(=O)Nc1c(C)cc(C)cc1C (stereo not drawn),8.4
O=C(CN1CCN(CCN2C(=O)c3cccc4cccc(c34)C2=O)CC1)c1ccc(Cl)cc1,8.9
COc1ccc(/C=C/C(=O)Nc2ccc(-c3nnc4n3CCCCC4)cc2)c(OC)c1,8.8
COc1cc(/C=C2/C(=O)N(c3ccccc3)N=C2C)ccc1OS(=O)(=O)c1ccccc1,16.8
COc1cc(CC(=O)NNC(=O)c2cc(C)oc2C)cc(OC)c1OC,13.7
CC1=CSC2=NC(=O)/C(=C\c3cccn3-c3ccc([N+](=O)[O-])cc3)C(=N)N12,13.9
Cc1cc(C)c(NC(=O)/C(=C/c2ccccc2)c2ccccc2)c(C)c1,-6.5
CC(c1nc2ccccc2c(=O)[nH]1)N1CCOCC1 (stereo not drawn),9.2
CC(C)CC(OC(=O)c1nsc(Cl)c1Cl)C(=O)NCc1cccs1 (stereo not drawn),12.7
Cc1sc2nc(CC(=O)NN)[nH]c(=O)c2c1C,19.1
O=C(O)C1C2CC2CN1C(=O)c1ccc(Cl)cc1 (stereo not drawn),19.9
S=c1[nH]nc(-c2ccccn2)n1/N=C/c1ccc(Cl)c(Cl)c1,13.3
O=C(NCc1ccncc1)c1cc2ccccc2nc1Cl,8.3
COc1cc(/C=C(/C#N)c2nc(-c3cc4ccccc4oc3=O)cs2)cc([N+](=O)[O-])c1O,5.0
CC(C)c1ccc(OCc2ccc(C(=O)NN3CCN(C)CC3)o2)cc1,14.3
Cc1cccc(Nc2nnc(SCC(=O)N(C)C3CCS(=O)(=O)C3)s2)c1C (stereo not drawn),14.5
CCCCC(=O)Nc1cccc(NC(=O)c2cccc([N+](=O)[O-])c2)c1,20.6
CC(C)(C)c1cc(NC(=O)c2ccco2)n(-c2ccccc2)n1,-2.9
Nc1cccc(Oc2ccc([N+](=O)[O-])cc2)c1,12.9
Cn1c(SCC(=O)Nc2cc([N+](=O)[O-])ccc2F)nnc1C(F)(F)F,11.3
Cc1nc2ccccc2c(=O)n1/N=C/c1ccc(O)cc1O,15.4
O=C(Cc1ccc(Cl)cc1)Nc1ccc(NC(=O)c2cccs2)cc1,-8.4
CN(C)S(=O)(=O)N1CCC(Oc2ccc(C(=O)NCC(C)(C)CO)cc2)CC1,-2.4
COc1ccc(OC)c(-n2c(Cn3c(-c4ccccn4)nc4ccccc43)n[nH]c2=S)c1,19.2
Cc1onc(-c2c(Cl)cccc2Cl)c1-c1nnc(-c2ccc(Cl)cc2)o1,19.1
CCOC(=O)CC1C(=O)NCCN1S(=O)(=O)c1ccc(Br)cc1 (stereo not drawn),6.1
Cc1cccc(NC(=O)Cn2cnc3c(oc4ccccc43)c2=O)c1C,11.5
Cc1noc(C)c1C(c1ccccc1)S(=O)(=O)c1ccccc1 (stereo not drawn),11.7
CN(CCOCCOc1ccc(Cl)cc1Br)Cc1ccccc1,8.4
Cc1ccnc(NC(=O)c2ccccc2NC(=O)C(C)(C)C)c1,19.6
C=CS(=O)(=O)c1sc(Cl)c(N2CCOCC2)c1[N+](=O)[O-],4.9
N/C(Cc1cccc2ccccc12)=N\OC(=O)COc1ccccc1,13.5
COc1ccc(NC(=O)N2CCCCCC2)cc1,33.7
Cc1ccc2[nH]c(C)c(CCNC(=O)NC3CCCCC3)c2c1,6.1
N#CCCCSc1nnc(Cc2ccc3c(c2)OCO3)o1,12.4
N#Cc1cccc(C#N)c1Oc1ccc(S(=O)(=O)Nc2ccccc2)cc1,18.4

# Copied from the list:
# Entry for N/C(Cc1cccc2ccccc12)=N\OC(=O)COc1ccccc1 in Biofilm kill mix: 13.5
# Entry for C=CS(=O)(=O)c1sc(Cl)c(N2CCOCC2)c1[N+](=O)[O-] in Biofilm kill mix: 4.9

# (list continues)
SMILES,Biofilm kill mix
COc1ccc(NC(=S)Nc2cnc3ccccc3c2)c(OC)c1,9.9
O=C(NC(=S)N1CCN(c2ccc(F)cc2)CC1)c1cccs1,11.1
Cc1cc(C)nc(SCNC(=O)c2ccccc2)n1,11.8
Cc1cc(C(=O)O)c(CSc2ncn[nH]2)o1,7.2
COc1ccc(-n2nc(C(=O)Nc3nc4ccc(OC)cc4s3)c3ccccc3c2=O)cc1,13.6
O=C(Cn1nc(Cc2cccnc2)c2ccccc2c1=O)Nc1ccccc1F,14.5
CCOC(=O)c1sc(/N=C/N(C)C)nc1C,10.0
CCOc1cccc(/C=N/NC(=S)Nc2cc(S(=O)(=O)N3CCOCC3)ccc2N2CCOCC2)c1O,13.7
CNc1ccc(S(=O)(=O)NCC(=O)OCC(=O)Nc2cccc(Cl)c2Cl)cc1[N+](=O)[O-],8.8
O=C(NCc1cccnc1)C(=O)Nc1nccs1,7.0
O=C(COc1ncnc2ccccc12)NCc1ccco1,21.5
Cc1ccc(CN=c2c([N+](=O)[O-])nn(-c3ccc(Cl)cc3)n2O)cc1,10.0
COc1cccc(-c2nc3ccccc3s2)c1O,24.2
COc1cc(/C=C(\NC(=O)c2ccccc2)C(=O)N2CC3CC(C2)c2cccc(=O)n2C3)cc(OC)c1OC (stereo not drawn),18.2
Cc1cc(Cl)c2ccccc2n1,6.3
CCOC(=O)c1cc2c(N)c(C(=O)c3ccc(Br)cc3)sc2[nH]c1=O,-1.0
Fc1ccc(CCNC(=S)Nc2ccc(F)c(Cl)c2)cc1,3.3
S=C(NCCc1ccc(Cl)cc1)Nc1ccc(Cl)cc1Cl,9.6
CCNCc1cc(Cl)cc(OC)c1OC(C)C,-12.7
COC(=O)[C@H](CCSC)NS(=O)(=O)c1ccccc1Br,16.8

# Reprinted at random: two records from the list
SMILES,Biofilm kill mix
CC(C)CC(OC(=O)c1nsc(Cl)c1Cl)C(=O)NCc1cccs1 (stereo not drawn),12.7
COc1ccc(NC(=S)Nc2cnc3ccccc3c2)c(OC)c1,9.9

# (more compounds)
SMILES,Biofilm kill mix
O=c1c2ccccc2c(C=Nc2ccc(S(=O)(=O)Nc3ncccn3)cc2)c(O)n1-c1cccc(Cl)c1,20.0
CCCN(CCC)CC(O)COc1ccccc1C(=O)Nc1ccccc1 (stereo not drawn),26.2
O=C(Cc1cccc2ccccc12)Nc1nc(-c2cccc([N+](=O)[O-])c2)cs1,16.4
O=C(O)C(=O)/C(=C\c1ccc([N+](=O)[O-])cc1)c1ccc2ccccc2n1,15.9
O=C1NN(c2cccc(Br)c2)C(=O)/C1=C/c1ccc(-c2cc([N+](=O)[O-])ccc2O)o1,18.0
COc1ccc(C2=NCCNC(C(F)(F)F)=C2)cc1,17.4
O=C(NNC(=O)c1cnccc1C(F)(F)F)c1ccc(Cl)cc1,18.8
Cc1cc(C)cc(C(=O)NCC(=O)OCc2cc([N+](=O)[O-])cc3c2OCOC3)c1,4.2
CC(C)(O)C(=O)NNC(=S)Nc1ccc(F)c(Cl)c1,7.2
Cc1ccc([N+](=O)[O-])c2c1C(N1CCCC1)C(C)(C)O2 (stereo not drawn),22.1

# Some of these compounds in order of length of the SMILES, descending.
SMILES,Biofilm kill mix
O=C1NN(c2cccc(Br)c2)C(=O)/C1=C/c1ccc(-c2cc([N+](=O)[O-])ccc2O)o1,18.0
Cc1cc(C)cc(C(=O)NCC(=O)OCc2cc([N+](=O)[O-])cc3c2OCOC3)c1,4.2
Cc1ccc([N+](=O)[O-])c2c1C(N1CCCC1)C(C)(C)O2 (stereo not drawn),22.1
O=C(NNC(=O)c1cnccc1C(F)(F)F)c1ccc(Cl)cc1,18.8
COc1ccc(C2=NCCNC(C(F)(F)F)=C2)cc1,17.4

# (list continues)
SMILES,Biofilm kill mix
Fc1ccc(-c2nc(-c3cccs3)no2)cc1,23.2
CCCCCCC1CCC(C(=O)N2CCOCC2)CC1 (stereo not drawn),16.2
COC(=O)c1c(NC(=O)CN2CCN(c3ccccc3Cl)CC2)sc(C)c1C,4.2
Cc1cc(C)cc(NC(=O)Nc2ccc(-n3ccc(C(F)(F)F)n3)cc2)c1,12.8
C1CN(CC23CC4CC(CC(C4)C2)C3)CCO1,14.0
CCCSc1ncccc1C(=O)O,18.1
CC(C)n1cnc2c(Nc3cccc(F)c3)nc(NCCO)nc21,13.5
Cc1ccc(OCC(=O)Nc2ccc(C)c(S(=O)(=O)N3CCCCCC3)c2)c([N+](=O)[O-])n1,7.7
CSc1nnc(C)c(=O)n1COC(=O)COc1ccccc1C,-6.8
CC(=O)c1cc(C#N)c(N2CCCCC2)nc1C,-15.4
Cc1nc([N+](=O)[O-])c(Br)n1CC(=O)c1ccc(F)cc1,6.1
CCOC(=O)C(C(=O)OCC)C1CS(=O)(=O)CC1C(C(=O)OCC)C(=O)OCC (stereo not drawn),9.8
COc1ccccc1OCC(=O)Nc1nonc1NC(=O)COc1ccccc1OC,10.4
Cc1cccc(N2CC(C(=O)Nc3nnc(SCC(=O)Nc4cc(C)on4)s3)CC2=O)c1 (stereo not drawn),12.5
O=C(COc1ccc(S(=O)(=O)N2CCOCC2)cc1)N1CCc2ccccc2C1,15.1
CC(=O)N(/N=C/c1ccc([N+](=O)[O-])o1)c1nc2ccccc2c(=O)n1-c1ccccc1,19.6
C/C(CC(=O)Nc1ccc2c(c1)OCO2)=N\NC(=O)c1ccc(N)cc1,21.6
COCCn1c(NC(=S)NC(=O)C2CC2)cc(=O)[nH]c1=O,-2.2
CN1CCN(C(=O)CN(c2ccccc2)S(=O)(=O)N(C)C)CC1,14.7
O=C(COC(=O)CNC(=O)c1ccc(Cl)cc1)Nc1cccc(S(=O)(=O)N2CCCC2)c1,16.0
CC(=O)c1sc(NC(=O)c2ccc(C)c(C)c2)nc1C,8.9
Brc1ccc(CSc2nnc(-c3ccco3)o2)cc1,21.8
O=C(NCCCn1ccnc1)c1cc2ccccc2o1,9.9
CCOC(=O)C(C)n1nc(/C=C/c2ccc(OC)cc2)ccc1=O (stereo not drawn),8.0
CCN(CC)C(=O)c1cc2c(=O)oc3ccccc3c2s1,8.9
COc1ccc(NC(C)=O)cc1S(=O)(=O)N1CCN(C(=O)c2ccccc2F)CC1,21.1
COCCCNC(=S)NNC(=S)Nc1ccccc1,10.5
Clc1ccc(CNc2ccccc2NCc2ccc(Cl)nc2)cn1,1.1
N#Cc1c(SCC(=O)Nc2ccccc2)nsc1SCC(=O)Nc1ccccc1,8.8
Cc1cccc(Oc2ccc(NC(=O)c3ccccc3C(=O)O)cc2)c1,16.9
Cc1ccc(S(=O)(=O)N(C)C)cc1NC(=O)CCc1c[nH]c2ccccc12,18.8
O=C(Nc1ccc(Cl)cc1)N1N=CCC1c1ccccc1 (stereo not drawn),23.9
COc1ccc(NC(=O)CCN2CCCC2)c(OC)c1,15.2
CCN1CCN(c2nc(C)c3c(n2)CC(C)CC3=O)CC1 (stereo not drawn),15.6
COC(=O)Cc1[nH]c(=O)[nH]c1C(=O)OC,7.5
CN(C)CCNC(NC(=O)c1cccs1)C(Cl)(Cl)Cl (stereo not drawn),9.5
CC1Cc2ccccc2N1CC(=O)Nc1ccc(S(=O)(=O)N(C)C)cc1 (stereo not drawn),7.8
O=C(O)c1cc(-c2ccc(Cl)s2)nc2ccccc12,5.2
C=CCC(=O)N1CCCC(CNC(=O)c2ccc(-c3ccccc3)cc2)C1 (stereo not drawn),22.3
O=C(NCCOc1ccccc1Cl)C(=O)Nc1ccccc1,6.3
Cc1ccc(S(=O)(=O)C2(C(=O)N3CCN(c4cc(C)ccc4C)CC3)CC2)cc1,26.2
Fc1ccc(/C=N/NC(=S)Nc2cccnc2)cc1,14.4
CCCn1c(C(C)NC(=O)c2ccccc2)n[nH]c1=S (stereo not drawn),3.8
